Assay outcomes (PubChem)
UUG fidelity – modulators of yeast start codon fidelity, primary screen, whole organism, S. cerevisiae, single point, plate reader | S. cerevisiae UUG-firefly luciferase reporter, luminescence/redox ratio | activity score, % at 18.7 µM | 0.13% of 350,000 active | AID 602363, 2012;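 active means replicate mean at a twofold rise or more, about +100% in these data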;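 further: firefly luciferase made from a UUG start codon reports start codon fidelity; reporter light over untreated wells divided by growth signal over untreated wells; some hits fall short of that in this replicate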
HIV Env fusion – inhibitors of HIV-1 Env-driven cell-cell fusion, primary screen, HeLa-JRFL effector, CEM21 target cells, luciferase; inhibition, % at 12.3 µM; 1.1% of 360,000 active;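 active means mean replicate inhibition score of at least 50 and every replicate individually at or above 50; inconclusive means only one of the two criteria met; inactive means mean below 50 and not all replicates reaching 50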;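 further: 0% = plate neutral controls and 100% = maraviroc near 300 nM; one replicate is shown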
The depositor's hits bear a star; ? = inconclusive; [ ] = remark or other dose. This is a subset; rates above refer to the full screens.

structure	UUG fidelity	HIV Env fusion
Cc1noc(C)c1NC(=O)N(C)C[C@@H]1OCCCC[C@H](C)Oc2ccc(NC(=O)c3ccncc3)cc2C(=O)N([C@@H](C)CO)C[C@H]1C	1	3[16.7 µM]
C[C@H](NC(=O)C[C@@H]1CC[C@@H]2[C@H](COC[C@@H](O)CN2Cc2cc(F)ccc2F)O1)c1ccccc1	-11	29[16.7 µM]
C[C@@H]1CN([C@H](C)CO)C(=O)c2cccc(NC(=O)C3CC3)c2O[C@@H]1CN(C)Cc1ccc2c(c1)OCO2	-6	-10[16.7 µM]
COCC1=C([C@H](O)c2ccccc2)[C@H](CO)[C@@H]2C(=O)N(Cc3ccccc3)C(=O)[C@@H]2C1	4	8[16.7 µM]
COc1ccc(NC(=O)Nc2ccc3c(c2)CC(=O)N([C@H](C)CO)C[C@H](C)[C@H](CN(C)C(=O)Nc2ccc(OC)cc2)O3)cc1	3	-9[16.7 µM]
C[C@H](CO)N1C[C@H](C)[C@@H](CN(C)C(=O)NC2CCCCC2)OCCCC[C@H](C)Oc2ccc(NC(=O)NC3CCCCC3)cc2C1=O	9	-5[16.7 µM]
C[C@H](CO)N1C[C@H](C)[C@H](CN(C)Cc2ccc(C(=O)O)cc2)Oc2ccc(NC(=O)Nc3ccc(F)cc3)cc2CC1=O	-14	17[16.7 µM]
COc1ccc(NC(=O)Nc2ccc3c(c2)C(=O)N([C@@H](C)CO)C[C@@H](C)[C@@H](CN(C)C(=O)NC(C)C)OCCCC[C@H](C)O3)cc1	8	15[16.7 µM]
C[C@H](CO)N1C[C@H](C)[C@H](CN(C)CC2CC2)Oc2ccc(NC(=O)CCCN(C)C)cc2C1=O	-17	10[16.7 µM]
C[C@@H]1CCCCO[C@@H](CN(C)C(=O)Nc2ccc3c(c2)OCO3)[C@@H](C)CN([C@H](C)CO)C(=O)c2cc(NC(=O)Nc3cccc4ccccc34)ccc2O1	10	10[16.7 µM]
CCCC#Cc1cnc2c(c1)C(=O)N([C@@H](C)CO)C[C@H](C)[C@@H](CN(C)C(=O)c1cccnc1)O2	-20	5[16.7 µM]
C[C@@H]1CN([C@H](C)CO)C(=O)c2cccc(NC(=O)c3cnccn3)c2O[C@H]1CN(C)S(=O)(=O)c1cccs1	-8	-7[16.7 µM]
COc1ccc(S(=O)(=O)Nc2cccc3c2O[C@@H](CN(C)S(=O)(=O)c2ccc(F)cc2)[C@@H](C)CN([C@H](C)CO)C3=O)cc1	-10	4[16.7 µM]
CCCN(C)C[C@@H]1Oc2cc(C#CCC3CCCC3)ccc2S(=O)(=O)N([C@H](C)CO)C[C@@H]1C	88	10[16.7 µM]
COc1ccccc1NC(=O)N(C)C[C@H]1Oc2ncc(C#CCN(C)C)cc2C(=O)N([C@@H](C)CO)C[C@H]1C	8	2[16.7 µM]
O=C(C[C@@H]1C=C[C@H](NC(=O)c2cccc(F)c2)[C@@H](CO)O1)NCc1ccccc1	-4	2[16.7 µM]
COCC(=O)N(C)C[C@H]1Oc2ncc(C#Cc3cccnc3)cc2C(=O)N([C@H](C)CO)C[C@@H]1C	10	-11[16.7 µM]
COc1ccc(S(=O)(=O)N(C)C[C@H]2OCCCC[C@H](C)Oc3ccc(NS(C)(=O)=O)cc3C(=O)N([C@@H](C)CO)C[C@@H]2C)cc1	12	18[16.7 µM]
COc1ccc(C#Cc2cnc3c(c2)C(=O)N([C@H](C)CO)C[C@@H](C)[C@H](CN(C)C)O3)cc1	-4	0[16.7 µM]
C[C@@H]1CN([C@@H](C)CO)C(=O)c2cc(NC(=O)Nc3ccccc3)ccc2O[C@@H]1CN(C)C(=O)Nc1ccc(C(F)(F)F)cc1	-3	12[16.7 µM]
C[C@@H]1CCCCO[C@@H](CN(C)Cc2ccccc2)[C@@H](C)CN([C@H](C)CO)C(=O)c2cc(NC(=O)Nc3ccc4c(c3)OCO4)ccc2O1	7	-35[16.7 µM]
N#C[C@@H]1[C@@H](c2ccccc2)[C@@H](CO)N1C(=O)Cc1ccccc1	18	-2[16.7 µM]
Cc1noc(C)c1S(=O)(=O)N(C)C[C@H]1Oc2ccc(NC(=O)Nc3ccc(F)cc3)cc2CC(=O)N([C@H](C)CO)C[C@H]1C	25	-3[16.7 µM]
C/C=C/c1ccc2c(c1)O[C@H](CN(C)C(=O)NC1CCCC1)[C@@H](C)CN([C@@H](C)CO)S2(=O)=O	5	-17[16.7 µM]
C[C@@H](NC(=O)C[C@@H]1C[C@H]2c3cc(NC(=O)Nc4ccccc4F)ccc3O[C@H]2[C@H](CO)O1)c1ccccc1	-2	-1[16.7 µM]
CC(=O)N(C)C[C@H]1Oc2ncc(C#Cc3ccncc3)cc2C(=O)N([C@H](C)CO)C[C@H]1C	-5	22[16.7 µM]
Cc1ccc(S(=O)(=O)Nc2cccc3c2O[C@@H](CN(C)Cc2ccc4c(c2)OCO4)[C@@H](C)CN([C@H](C)CO)C3=O)cc1	4	-36[16.7 µM]
CC(C)NC(=O)N(C)C[C@@H]1OCCCC[C@@H](C)Oc2ccc(NS(=O)(=O)c3ccc(Cl)cc3)cc2C(=O)N([C@@H](C)CO)C[C@H]1C	-8	-52[16.7 µM]
COc1ccc(NC(=O)Nc2ccc3c(c2)C(=O)N([C@@H](C)CO)C[C@@H](C)[C@H](CN(C)C(=O)Cc2ccccc2)OCCCC[C@@H](C)O3)cc1	33	11[16.7 µM]
O=C(Nc1cccc(Cl)c1)N[C@H]1CC[C@@H](CCNC(=O)C2CCOCC2)O[C@H]1CO	5	0[16.7 µM]
COc1ccc(S(=O)(=O)N(C)C[C@H]2OCCCC[C@H](C)Oc3ccc(NS(=O)(=O)c4ccc(F)cc4)cc3C(=O)N([C@@H](C)CO)C[C@@H]2C)cc1	7	-34[16.7 µM]
C[C@@H]1CN([C@H](C)CO)S(=O)(=O)c2ccc(Br)cc2O[C@@H]1CN(C)C(=O)CC1CC1	35	1[16.7 µM]
C[C@H](CO)N1C[C@H](C)[C@@H](CN(C)C(=O)Nc2ccc3c(c2)OCO3)OCc2cn(nn2)CCCC1=O	-7	-2
CN1CCN(C(=O)C[C@@H]2C[C@@H]3c4cc(NC(=O)Nc5ccccc5F)ccc4O[C@@H]3[C@@H](CO)O2)CC1	6	-3[16.7 µM]
COc1ccc(S(=O)(=O)Nc2cccc3c2O[C@@H](CN(C)Cc2ccc(C(F)(F)F)cc2)[C@@H](C)CN([C@H](C)CO)C3=O)cc1	2	-63[16.7 µM]
COC(=O)C[C@@H]1C[C@@H]2c3cc(NS(=O)(=O)c4ccc(OC)cc4)ccc3O[C@@H]2[C@H](CO)O1	-16	5[16.7 µM]
Cc1noc(C)c1NC(=O)Nc1ccc2c(c1)C(=O)N([C@H](C)CO)C[C@@H](C)[C@H](CN(C)CC1CCCCC1)O2	-16	-17[16.7 µM]
CNC[C@@H]1Oc2ccc(NC(=O)C3CCCCC3)cc2CC(=O)N([C@H](C)CO)C[C@H]1C	-9	-6[16.7 µM]
O=C(Nc1ccc2c(c1)OCO2)N[C@H]1CC[C@H](CCNC(=O)C2CCCCC2)O[C@H]1CO	-6	-6[16.7 µM]
O=C(N[C@H]1CC[C@H](CCNS(=O)(=O)c2ccc(F)cc2)O[C@H]1CO)C1CC1	-3	-2[16.7 µM]
CN1CCN(c2ccc(-c3cc(NC=O)c4ncc(-c5ccc(F)c(Cl)c5)n4c3)cc2)CC1	-7	?
C[C@@H]1CN([C@@H](C)CO)C(=O)c2cc(NS(=O)(=O)c3ccccc3)ccc2O[C@H]1CN(C)Cc1ccc(Oc2ccccc2)cc1	-4	94*[16.7 µM]
O=C(N[C@H]1CC[C@@H](CCNS(=O)(=O)c2ccc(Cl)cc2)O[C@@H]1CO)c1cccc(F)c1	6	9[16.7 µM]
COC(=O)C[C@@H]1CC[C@@H]2[C@@H](COc3ccc(NC(=O)c4ccc(F)cc4)cc3C(=O)N2C)O1	15	10[16.7 µM]
C[C@@H]1CN([C@H](C)CO)C(=O)Cc2cc(NC(=O)Cc3cn(C)c4ccccc34)ccc2O[C@H]1CN(C)S(=O)(=O)c1cn(C)cn1	8	48[16.7 µM]

One compound at a time, from the list above. Values in the order: UUG fidelity | HIV Env fusion
Profile of COc1ccc(S(=O)(=O)N(C)C[C@H]2OCCCC[C@H](C)Oc3ccc(NS(=O)(=O)c4ccc(F)cc4)cc3C(=O)N([C@@H](C)CO)C[C@@H]2C)cc1 → 7 | -34[16.7 µM]
Profile of CN1CCN(C(=O)C[C@@H]2C[C@@H]3c4cc(NC(=O)Nc5ccccc5F)ccc4O[C@@H]3[C@@H](CO)O2)CC1 → 6 | -3[16.7 µM]

Returning to the listing, repeating the 7 entries before the break.
smiles,UUG fidelity,HIV Env fusion
O=C(Nc1ccc2c(c1)OCO2)N[C@H]1CC[C@H](CCNC(=O)C2CCCCC2)O[C@H]1CO,-6,-6[16.7 µM]
O=C(N[C@H]1CC[C@H](CCNS(=O)(=O)c2ccc(F)cc2)O[C@H]1CO)C1CC1,-3,-2[16.7 µM]
CN1CCN(c2ccc(-c3cc(NC=O)c4ncc(-c5ccc(F)c(Cl)c5)n4c3)cc2)CC1,-7,?
C[C@@H]1CN([C@@H](C)CO)C(=O)c2cc(NS(=O)(=O)c3ccccc3)ccc2O[C@H]1CN(C)Cc1ccc(Oc2ccccc2)cc1,-4,94*[16.7 µM]
O=C(N[C@H]1CC[C@@H](CCNS(=O)(=O)c2ccc(Cl)cc2)O[C@@H]1CO)c1cccc(F)c1,6,9[16.7 µM]
COC(=O)C[C@@H]1CC[C@@H]2[C@@H](COc3ccc(NC(=O)c4ccc(F)cc4)cc3C(=O)N2C)O1,15,10[16.7 µM]
C[C@@H]1CN([C@H](C)CO)C(=O)Cc2cc(NC(=O)Cc3cn(C)c4ccccc34)ccc2O[C@H]1CN(C)S(=O)(=O)c1cn(C)cn1,8,48[16.7 µM]
COc1ccc(CNC(=O)C[C@H]2CC[C@H](NC(=O)Nc3ccc4c(c3)OCO4)[C@@H](CO)O2)cc1,-6,13[16.7 µM]
CCCN1C[C@H](C)[C@H](OC)CN(C)C(=O)c2cc(NC(=O)c3ccno3)ccc2OC[C@H]1C,3,-7[16.7 µM]
C[C@@H]1CN([C@H](C)CO)C(=O)c2cc(-c3cncnc3)cnc2O[C@@H]1CN(C)C(=O)c1cccc(F)c1,10,-1[16.7 µM]
COc1ccc(S(=O)(=O)N[C@@H]2CC[C@H](CCNC(=O)Cc3ccccn3)O[C@@H]2CO)cc1,12,1[16.7 µM]
C[C@H]1CN([C@@H](C)CO)C(=O)c2cc(-c3cccc(C#N)c3)cnc2O[C@H]1CN(C)C(=O)c1cnccn1,5,10[16.7 µM]
C[C@H](CO)N1C[C@H](C)[C@@H](CN(C)Cc2ccc(Cl)c(Cl)c2)Oc2ccc(NC(=O)Cc3ccccc3)cc2CC1=O,11,-21[16.7 µM]
NCC[C@H]1CC[C@@H](NS(=O)(=O)Cc2ccccc2)[C@@H](CO)O1,-12,-8[16.7 µM]
O=C(O)C[C@H]1C=C[C@@H](NC(=O)Nc2ccccc2)[C@H](CO)O1,-20,54[16.7 µM]
C[C@@H]1CCCCO[C@H](CN(C)C(=O)Nc2ccc3c(c2)OCO3)[C@@H](C)CN([C@H](C)CO)C(=O)c2cc(NC(=O)Nc3ccc(C(F)(F)F)cc3)ccc2O1,-12,0[16.7 µM]
C[C@H]1CN([C@@H](C)CO)S(=O)(=O)c2ccc(C#Cc3ccccc3)cc2O[C@H]1CN(C)C(=O)c1ccccn1,-3,-13[16.7 µM]
CCCN(C)C[C@H]1Oc2cc(-c3cccc(OC)c3)ccc2S(=O)(=O)N([C@H](C)CO)C[C@H]1C,-2,-21[16.7 µM]
COc1ccc(NC(=O)N[C@@H]2CC[C@@H](CCn3cc(-c4ccccn4)nn3)O[C@@H]2CO)cc1,-25,-15[16.7 µM]
CC(=O)n1cc([C@@H]2C=C(C(=O)N3CCCCCCC3)O[C@H](OCc3ccc(CO)cc3)C2)c2ccccc21,6,-6[16.7 µM]
COC(=O)C[C@@H]1C[C@@H]2c3cc(NS(=O)(=O)c4ccc(OC)cc4)ccc3O[C@@H]2[C@@H](CO)O1,-3,-3[16.7 µM]
C[C@@H]1CN([C@H](C)CO)C(=O)c2cc(/C=C/c3ccccc3)cnc2O[C@H]1CN(C)C(=O)CN(C)C,3,19[16.7 µM]
C[C@@H]1CCCCO[C@@H](CN(C)C(=O)Nc2cccc3ccccc23)[C@@H](C)CN([C@H](C)CO)C(=O)c2cc(NS(=O)(=O)c3ccc(Cl)cc3)ccc2O1,-5,-22[16.7 µM]
C[C@H]1CN([C@@H](C)CO)C(=O)c2cccc(NS(=O)(=O)c3ccccc3)c2O[C@@H]1CN(C)Cc1ccc(Cl)c(Cl)c1,-4,-23[16.7 µM]
C[C@@H]1CN([C@@H](C)CO)C(=O)c2cc(-c3ccccc3)cnc2O[C@@H]1CN(C)C(=O)Cc1ccccc1,-9,-2[16.7 µM]
C[C@@H]1CN([C@H](C)CO)C(=O)c2cc(C#CCN(C)C)cnc2O[C@H]1CN(C)S(=O)(=O)c1ccccc1,18,-1[16.7 µM]
C[C@@H]1CN([C@H](C)CO)C(=O)c2cccc(NS(=O)(=O)c3cn(C)cn3)c2O[C@@H]1CN(C)Cc1ccc(C(=O)O)cc1,-17,-3[16.7 µM]
COc1ccc(NC(=O)N(C)C[C@H]2Oc3cc(-c4ccncc4)ccc3S(=O)(=O)N([C@H](C)CO)C[C@H]2C)cc1,-9,-34[16.7 µM]
C[C@H]1CN([C@@H](C)CO)C(=O)c2cc(NC(=O)C3CCCCC3)ccc2O[C@H]1CN(C)C,-19,-15[16.7 µM]
